High-throughput results deposited in PubChem by National Center for Advancing Translational Sciences (NCATS).
Methyltransferases: Primary Screen for Target Class Profiling of Small Molecule Inhibitors of Methyltransferases; purified enzyme, MTase-Glo SAH luminescence; hits give low values; calls only at 40 µM; 25,000 compounds, 3.9% hits; AID 1745853, 2022; active = -50% or lower on at least one of six enzymes; inconclusive = the cases between; inactive = as a rule above -30% on all six;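 also: enzymes were COMT GAMT GNMT HNMT NNMT and PNMT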
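Each enzyme was assayed with SAM and its substrate. SAH formation detected by MTase-Glo luminescence; single-point 40 uM screen[…].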
Calls only; i = inactive; u = inconclusive; + = active, no number. % is scaled to controls: 0 for no effect and ±100 for the full control effect. This is a subset; count on the stated rates, not on these rows.

smiles	Methyltransferases
CC(=O)Nc1c2n(c3ccccc13)CC(C)(C(=O)NC1CCCC1)N(C1CCCC1)C2=O (centres undefined)	i
CC(C)Cn1c(=O)c2cc(F)ccc2n2c(SCC(=O)Nc3ccccc3F)nnc12	i
CNC(=O)[C@@H](CC(C)C)N1CCC[C@H]1C(=O)N[C@@H](CO)CC(C)C	i
CCCn1cc2c(nc(NC(=O)Nc3ccc(OC)cc3)n3nc(-c4ccco4)nc23)n1	i
CCC1CCCCN1CCCN1C(=O)c2cc3occc3n2CC1(C)C(=O)NC1CCCCCCC1 (centres undefined)	i
CN(CC(=O)NCc1ccccc1)S(=O)(=O)c1ccc2[nH]c3c(c2c1)CCCC3	i
C=C1C(OC(=O)/C(C)=C\C)[C@@]23CCC4[C@@](C)(CCC[C@@]4(C)C(=O)O)C2CC[C@H]1C3OC(C)=O (some centres undefined)	i
O=C(c1ccc2ccccc2n1)N1CCc2nnc(CCc3ccccc3)n2CC1	i
CCC(C)NC(=O)c1ccc2c(=O)n(C(C)C)c3nn(CC(=O)Nc4ccccc4)c(=O)n3c2c1 (centres undefined)	i
CCCN1C(=O)c2c(C(=O)NCc3ccccc3C)ncn2CC1(C)C(=O)NCCC(C)C (centres undefined)	i
CC(C)CCN1CCC(O)(c2csc(CN(C)Cc3cccnc3)n2)CC1	i
COc1cccc(COC2CN(C(=O)CCn3nccc3C)CC(=O)N(Cc3ccccn3)C2)c1 (centres undefined)	i
CCC(C)NC(=O)Cn1nc2n(CC(C)C)c(=O)c3ccc(C(=O)NC(C)C)cc3n2c1=O (centres undefined)	i
CN1CCN(C(=O)[C@@H]2CCC[C@@H](NCc3cnn(C)c3)CN(C)C(=O)C2)CC1	i
CCOC(=O)c1cc2n(n1)CC(C)(C(=O)NC1CCCCC1)N(c1ccc(OCC)cc1)C2=O (centres undefined)	i
CC(C)OCCCn1c(=O)c2ccccc2n2c(=O)n(CC(=O)c3ccc(Br)cc3)nc12	i
O=C(Cn1ccc2cc(S(=O)(=O)N3CCCC3)ccc21)NCCCc1ccccc1	i
CN1C[C@@H](NC(=O)c2ccc(C#N)cc2)C[C@H]1c1nc(Cc2ccccc2)no1	i
CCCC1c2ccc(C)n2CCN1C(=O)Nc1cccc2c1CCCC2 (centres undefined)	i
COc1ccc(CN2C(=O)c3cc4occc4n3CC2(C)C(=O)NC2CCCCC2C)cc1 (centres undefined)	i
CC(C(=O)NCc1ccc2c(c1)OCO2)n1ccc2cc(S(=O)(=O)N3CCCC3)ccc21 (centres undefined)	i
COCCN1C(=O)c2cc(-c3ccc(OC)c(OC)c3)nn2CC1(C)C(=O)NC1CCCCC1 (centres undefined)	i
CCCn1c(=O)c2ccccc2n2c(=O)n(CC(=O)Nc3cc(C)cc(C)c3)nc12	i
CCc1cc2c(cc3n2CC(C)(C(=O)NC2CCC(C)CC2)N(Cc2ccc(C)cc2)C3=O)s1 (centres undefined)	i
O=C(CCc1ccccc1)c1c(O)c([C@@H]2O[C@H](CO)[C@@H](O)[C@H](O)[C@H]2O)c(O)c([C@@H]2O[C@H](CO)[C@@H](O)[C@H](O)[C@H]2O)c1O	+
O=C(NCC(F)(F)F)c1cn2cc(-c3ccc(C(F)(F)F)cc3)sc2n1	i
COc1cc2c(cc1-c1ccc(S(C)(=O)=O)cc1)OCC(C)(C)CC2CO (centres undefined)	i
O=C(Cn1nc2n(Cc3ccc(F)cc3)c(=O)c3ccccc3n2c1=O)c1ccccc1	i
CC1(C(=O)NC2CCCCCC2)Cn2c(cc3occc32)C(=O)N1C1CCCC1 (centres undefined)	i
CC1=CC(=O)[C@]2(O[C@@H]3O[C@@H](C)[C@H](O)[C@@H](O)[C@H]3O)C=CO[C@@H](O[C@@H]3O[C@H](CO)[C@@H](O)[C@H](O)[C@H]3O)[C@H]12	i

Random excerpt: seven compounds from above, in no set order.
smiles	Methyltransferases
CCCC1c2ccc(C)n2CCN1C(=O)Nc1cccc2c1CCCC2 (centres undefined)	i
CCc1cc2c(cc3n2CC(C)(C(=O)NC2CCC(C)CC2)N(Cc2ccc(C)cc2)C3=O)s1 (centres undefined)	i
O=C(CCc1ccccc1)c1c(O)c([C@@H]2O[C@H](CO)[C@@H](O)[C@H](O)[C@H]2O)c(O)c([C@@H]2O[C@H](CO)[C@@H](O)[C@H](O)[C@H]2O)c1O	+
CC1=CC(=O)[C@]2(O[C@@H]3O[C@@H](C)[C@H](O)[C@@H](O)[C@H]3O)C=CO[C@@H](O[C@@H]3O[C@H](CO)[C@@H](O)[C@H](O)[C@H]3O)[C@H]12	i
CCCn1c(=O)c2ccccc2n2c(=O)n(CC(=O)Nc3cc(C)cc(C)c3)nc12	i
O=C(Cn1ccc2cc(S(=O)(=O)N3CCCC3)ccc21)NCCCc1ccccc1	i
CC(C)OCCCn1c(=O)c2ccccc2n2c(=O)n(CC(=O)c3ccc(Br)cc3)nc12	i

(continued)
smiles	Methyltransferases
CCOC(=O)c1cc2n(n1)CC(C)(C(=O)NCc1ccccc1)N(c1cc(C)ccc1C)C2=O (centres undefined)	i
CN1CCN(C(c2ccc(Cl)cc2Cl)c2sc3nc(-c4ccco4)nn3c2O)CC1 (centres undefined)	u
CC1(C)CC[C@]2(C(=O)O)CC[C@]3(C)C(=CCC4[C@@]5(C)CC[C@H](O[C@H]6O[C@H](C(=O)O)[C@@H](O)[C@H](O[C@@H]7O[C@H](CO)[C@H](O)[C@H](O)[C@H]7O)[C@H]6O)C(C)(C)C5CC[C@]43C)[C@@H]2C1 (some centres undefined)	i
CCc1nc(NC(CCn2cncn2)c2ccccc2)c2cnn(C)c2n1 (centres undefined)	i
C=CC1(C)CC2CCC3C(C)(C(=O)O)CCCC3(C)C2=CC1=O (centres undefined)	i
COCCNC(=O)CCc1nnc2n(Cc3ccccc3)c(=O)c3ccccc3n12	i
CN1C(=O)c2ccccc2-n2c(nc3ccccc3c2=O)/C1=C/c1ccccc1	i
O=C1CC2CCN(C(=O)C3CCCCC3)CC2CCN1 (centres undefined)	i
CSc1ccc(CN2C(=O)c3cc(-c4ccccc4)nn3CC2(C)C(=O)NCc2ccccc2)cc1 (centres undefined)	i
O=C(CCc1nnc2n(Cc3ccc(F)cc3)c(=O)c3ccccc3n12)N1CCN(c2cccc(Cl)c2)CC1	i
COCCCN1C(=O)c2cc3c(OC)ccc(OC)c3n2CC1(C)C(=O)NC1CCCCC1 (centres undefined)	+
CN(C)c1ccc(CNC(=O)c2cc3n(n2)CC(C)(C(=O)NCc2ccccc2)N(C)C3=O)cc1 (centres undefined)	i
Cc1ccc(Cn2c(=O)c3ccccc3n3c(=O)n(CC(=O)Nc4ccc(F)cc4)nc23)cc1	i
COc1ccc(CN2C(=O)c3cc(-c4ccccc4)nn3CC2(C)C(=O)NCc2ccccc2)cc1 (centres undefined)	i
CCCSCCCN1C(=O)c2nc3ccccc3n2CC1(C)C(=O)NC1CCCC(C)C1C (centres undefined)	i
CNC(=O)[C@@H]1CN(C(=O)CCc2cccc(OC)c2)C[C@H]1c1nc(C)no1	i
CC(=C\C(C)O)/C=C(\C)C(=O)CC1CC(CC(N)=O)CC(=O)O1 (centres undefined)	i
C=C(COC(=O)CC(C)C)C1Cc2cc(C(C)=O)ccc2O1 (centres undefined)	i
O=C(CCc1nnc2n(CCc3ccccc3)c(=O)c3ccccc3n12)N1CCN(c2ccc(F)cc2)CC1	i
Cc1cc(CNC(=O)c2cc(C(C)C)n3ncnc3n2)c2[nH]c(C)c(C)c2c1	i
CCOC(=O)c1cc2n(n1)CC(C)(C(=O)NC1CCCCC1)N(Cc1ccc3c(c1)OCO3)C2=O (centres undefined)	i
Cc1c(CN2CCCC23CCN(c2ccc(C(F)(F)F)cn2)CC3)cc(C#N)n1C	i
COc1cccc(CN2CCCC(c3nc(-c4cccnc4)no3)CCNC(=O)CC2)n1 (centres undefined)	i
O=C(c1cccnc1)N1CCn2cc(C(=O)N3CCOCC3)nc2C1	i
CC1(C(=O)NC2CCCC2)Cn2c(nc3ccccc32)C(=O)N1Cc1cccnc1 (centres undefined)	i
CCCS(=O)(=O)N1CCC(c2noc(-c3ccccc3)n2)C1 (centres undefined)	i
CCc1cc2c(cc3n2CC(C)(C(=O)NC2CCCCC2)N(CCCN2CCCCC2C)C3=O)s1 (centres undefined)	i
O=C(Nc1ncc([N+](=O)[O-])s1)c1ccccc1O	i
CCNC(=O)[C@@H]1C[C@H](NC(=O)c2ccco2)CN1C(=O)Cn1nccc1C	i
O=C(Nc1ccc(F)c(Cl)c1)c1cnc(-c2ccccc2)nc1-c1ccncc1	i
Fc1ccc(-n2cc(CCCCN3CCC4(CC3)OCc3ccccc34)c3ccccc32)cc1	i
Cc1ccc(NC(=O)CN(C)S(=O)(=O)c2ccc3[nH]c4c(c3c2)CCCC4)cc1Cl	i
CC(C)Cn1c(=O)c2ccccc2n2c(CCC(=O)NC3CCCCC3)nnc12	i
CCOC(=O)c1cc2n(n1)CC(C)(C(=O)NCc1ccccc1)N(c1ccccc1C)C2=O (centres undefined)	i
COCC(=O)N1CCCCC1c1nc(-c2ccccc2)n[nH]1 (centres undefined)	i
Cc1ccc(C)c(CSc2nnc3n(CCCOC(C)C)c(=O)c4ccccc4n23)c1	i
CCc1nc(-c2c3n(c(=O)n(CCOc4ccc(F)cc4)c2=O)CCCC3)no1	i
CC1CCC/C=C/C(=O)c2c(O)cc(O)cc2CC(=O)O1 (centres undefined)	i
CCOc1ccc(N2C(=O)c3c(C(=O)OC)ncn3CC2(C)C(=O)NC2CCCCCC2)cc1 (centres undefined)	i
O=C(O)/C=C/c1ccc2occc2c1O[C@@H]1O[C@H](CO)[C@@H](O)[C@H](O)[C@H]1O	i
CCOCCCNC(=O)C1c2c(n(C)c3ccccc23)SCC(=O)N1c1ccccc1CC (centres undefined)	i
COc1ccc(CN2C(=O)c3ccccc3CC2(C)C(=O)NC2CCCCC2)cc1 (centres undefined)	i
C[C@@H](NS(=O)(=O)c1ccc(Cl)cc1)c1onc(-c2ccc(F)cc2)c1C(=O)O	i
COCC(=O)N[C@H]1C[C@@H](CO)N(Cc2sccc2C)C1	i
COc1ccc(C(=O)N2CCC23Cc2ccccc2NC3=O)cc1 (centres undefined)	i
CC1CCC(NC(=O)C2(C)Cn3c(nc4ccccc43)C(=O)N2Cc2cccs2)CC1 (centres undefined)	i
Cc1ccc(Cn2c(=O)c3ccccc3n3c(CCC(=O)NCCCN4CCCC4=O)nnc23)cc1	i
COc1cc(C[C@H]2COC(=O)[C@@H]2Cc2ccc(O)c(OC)c2)ccc1O	u
CC(C)[C@@H]1CN(C(=O)CCn2ccc(=O)[nH]c2=O)C[C@H]1NC(=O)N(C)C	i
NC[C@@H]1O[C@H](C23CC4CC(CC(C4)C2)C3)Cc2c1ccc(O)c2O	i
CN1CCN(C(=O)CN[C@@H]2C[C@H]2c2ccc(OCc3ccccc3)cc2)CC1	u
O=C(Nc1ccc2c(c1)OCCO2)N1CCC(Cc2nc(-c3ccncc3)n[nH]2)C1 (centres undefined)	u
CCC(C)NC(=O)c1ccc2c(=O)n(C)c3nnc(SCC(=O)c4cc(C)ccc4C)n3c2c1 (centres undefined)	i
CCN(CC)CCCNC(=O)c1cc2n(n1)CC(C)(C(=O)NC1CCCC1)N(C)C2=O (centres undefined)	i
Cc1ccc(NC(=O)Cn2c(=O)oc3cc(S(=O)(=O)N4CCCC4)ccc32)cc1C	i
COc1ccc(-c2cc3n(n2)CC(C)(C(=O)NCc2ccccc2OC)N(Cc2ccc(C)o2)C3=O)cc1 (centres undefined)	i
COCCOC1CCN(C(=O)c2[nH]nc3c2COc2ccccc2-3)CC1	u
COc1ccccc1OCCNC(=O)[C@]12CCCC[C@@H]1N(C)C(=O)CC2	i
COc1ccc(CN2C(=O)c3cc4ccccc4n3CC2(C)C(=O)NCc2ccccc2)cc1OC (centres undefined)	+
O=C(NCC1(COc2ccc(C(F)(F)F)cn2)C[C@@H](O)[C@@H](O)C1)c1cnccn1 (some centres undefined)	i

Continued.
smiles	Methyltransferases
Cc1cccc(=O)n1CCC(=O)NCc1cc2n(n1)CCN(C(=O)N(C)C)C2	i
CC(C)CCN1CCC(N2CCN(C(=O)c3ccc(Br)o3)CC2)C1=O (centres undefined)	i
COc1ccc(N2C(=O)c3ccc(-c4ccco4)n3CC2(C)C(=O)NCc2ccccc2)cc1 (centres undefined)	i
COc1ccc(CCNC(=O)CCc2nnc3n(CCCOC(C)C)c(=O)c4ccccc4n23)cc1OC	i
CC(C)c1ccc2c(c1)C(O)CC1C(C)(C(=O)O)CCCC21C (centres undefined)	i
CCOC(=O)c1cc2n(n1)CC(C)(C(=O)NC1CCCC1)N(c1cccc(C)c1C)C2=O (centres undefined)	i
COc1cc(-c2nnc3n(Cc4ccccc4Cl)c(=O)c4ccccc4n23)ccc1O	i
CCCN1C(=O)c2c(C(=O)NCc3ccccc3OCC)ncn2CC1(C)C(=O)NCc1ccc(F)cc1 (centres undefined)	i
Cc1ccc(Cn2c(=O)c3ccc(C(=O)NCC(C)C)cc3n3c(=O)n(C)nc23)cc1	i
CC1(C(=O)NCc2ccccc2)Cn2c(ccc2-c2ccco2)C(=O)N1Cc1ccc(Cl)cc1 (centres undefined)	i
O=C(CSc1nnc2n(Cc3ccc(F)cc3)c(=O)c3ccccc3n12)Nc1ccc(Cl)cc1	i
O=C(Cn1nc2nc(Nc3ccc(F)cc3)ccn2c1=O)Nc1cc(F)cc(F)c1	i
CC(=O)Nc1ccc(CN2CC3(Cc4ccccc4NC3=O)C2)cc1	i

Three compounds out of the list, ordered by molar mass, descending.
smiles	Methyltransferases
Cc1ccc(Cn2c(=O)c3ccc(C(=O)NCC(C)C)cc3n3c(=O)n(C)nc23)cc1	i
CC(C)CCN1CCC(N2CCN(C(=O)c3ccc(Br)o3)CC2)C1=O (centres undefined)	i
CC(=O)Nc1ccc(CN2CC3(Cc4ccccc4NC3=O)C2)cc1	i
